Screening data from PubChem BioAssay.
HSD17B inhib: inhibitors of human HSD17B10 dehydrogenase; AID 893; Potency, µM (doses to about 57.1 µM), inactives show at the top dose activity change, negative = inhibition, most hits filed as inhibitors; recombinant HSD17B10, NADH fluorescence kinetic; many of its hits are not listed in these tables; hit rate 7.6% among 75,000; Q99714; active means well fitted inhibition curve with a large enough effect; inconclusive means small, poorly fitted or top-dose-only effect; inactive means no such curve, though single readings can be large or run the other way;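 further: the protocol describes HADH2 (HSD17B10) and not the HSD17B4 of the title; nearly all actives have a fitted effect of over 70% in size; most hits overshoot -100% by far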
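Enzyme plus compound, 15 min room temperature; substrate mix added (NAD+ 1 mM, beta-hydroxybutyryl-CoA 90 uM final); plates read kinetically for NADH fluorescence. HADH2 was His-tagged, E. coli-derived, 20 nM.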
An asterisk follows results filed as active; ? = inconclusive; [ ] = another dose, or the depositor's remark. On the % scale 0 is the no-effect control and ±100 the full control effect; potency means the concentration at half of the fitted maximal effect. A portion of the library; rates above refer to the full screens.

SMILES	HSD17B inhib
O=C(c1cccc2c1-c1ccccc1/C2=N/O)N1CCCCC1	-2%
CC1CCCCN1CCNc1nc(=S)[nH]c2ccccc12 (stereo not drawn)	-9%
CC1CCC(C(=O)NC(C(=O)N2CCC(N3CCCCC3)CC2)C(C)C)CC1 (stereo not drawn)	3%
CC(C)(C)OC(=O)N1CCC(C(=O)N[C@H](Cc2ccccc2)C(=O)O)CC1	5%
C=CCC1C=CC(Oc2ccc(F)cc2C)C(CO)O1 (stereo not drawn)	3%[11.4 µM]
CCCc1ccc(-c2ccc(F)c(N)c2)nc1	-7%
COc1ccccc1CNS(=O)(=O)c1ccc2[nH]cc(C(=O)O)c(=O)c2c1	?
CC(O)[C@H](NC(=O)C1(c2ccccc2)CCN(C(=O)OC(C)(C)C)CC1)C(=O)O (stereo partly drawn)	-1%
O=C(Cc1cccs1)Nc1nc2c(s1)CCCC2	-7%
COc1ccc(C)cc1S(=O)(=O)N(CC(=O)O)c1ccccc1	1%
CC(=O)Nc1ccc(NC(=O)Oc2ccccc2)cc1	-7%
O=C(Nc1ccccc1)N1CC[C@@]2(CCCN(C(=O)c3csnn3)C2)C1	-10%
OCc1nn2c(c1Br)NC(c1ccccc1)CC2C(F)(F)F (stereo not drawn)	5%
CCn1c(SCC(=O)NCc2ccc(C)cc2)nnc1-c1ccncc1	-3%
Cc1cc(Br)c(S(=O)(=O)NCCN2CCOCC2)cc1C	2%
CCOc1ccc2nc(NCCNC(=O)CC)c(C#N)cc2c1	0%
N#Cc1ccc(N2CCN(C(=O)c3cccc(F)c3)CC2)c(F)c1	-4%
CCn1c(C(=O)NCCCN2CCc3ccccc3C2)cc2sccc21	4%
O=C(O)CCc1nc2ccccc2[nH]1	7%[11.4 µM]
CCn1c(CSc2nc3ccccc3s2)nc2ccccc21	25µM*
CCN(CC)c1nc(Nc2ccccc2)nc(Oc2ccc(=O)[nH]n2)n1	-5%
COC(=O)c1nnn(-c2nonc2N)c1CN1CCc2ccccc21	?
COc1cccc(C2c3c(oc4ccccc4c3=O)C(=O)N2CCCN2CCOCC2)c1 (stereo not drawn)	-6%
Nc1cc(C2CCCC2)nn1-c1ccccc1	4%
O=C(c1cc(-c2ccco2)on1)N1CCN(C(c2ccccc2)c2ccccc2)CC1	-22%
O=C(Cc1ccccc1)n1nc(-c2ccccc2)nc1NCc1ccco1	107%[activator]
O=C(c1cccc(F)c1)N1CCN(C(=O)c2nn3cccnc3c2Cl)CC1	6%
C[C@@]12CC[C@@H]3[C@@H](CC[C@H]4C[C@@H](O)CC[C@]43C)[C@H]1CC[C@@H]2c1cc(C(F)(F)F)n[nH]1	11%[11.4 µM]
Oc1c(CN2CCc3ccccc3C2)cc(Cl)c2cccnc12	-12%
CC1(c2ccc(Cl)cc2Cl)OCC(Cn2ccnc2)O1 (stereo not drawn)	-2%
CS(=O)(=O)N1CCC2(CCCN(Cc3cc(C(F)(F)F)cc(C(F)(F)F)c3)C2)CC1	-6%
CCOc1ccc(-n2c(Cc3cc(=O)[nH]c(=O)[nH]3)nnc2SCC(=O)NC2CCCC2)cc1	9%
CC(C)(C)c1[nH]nc2c1C(Cc1ccccc1)C(C#N)=C(N)O2 (stereo not drawn)	0%
CCN(CC)C(=O)C(C)N(C#N)c1nc(NC(C)C)nc(NC(C)C)n1 (stereo not drawn)	12%
CCCn1nc(C(=O)NCCN2CCOCC2)c2ccccc2c1=O	4%
COc1ccc(C(=O)N2CCCCC2)cc1S(=O)(=O)Nc1ccccc1	13%
Cc1ccc(S(=O)(=O)NC2=NCN(CCN3CCOCC3)CN2)cc1	9%
CCCn1c(=O)c2ccccc2n2c(SCN3C(=O)c4ccccc4C3=O)nnc12	10%
COc1cccc(CN(C(=O)c2ccco2)C(C(=O)NC2CCCC2)c2cccnc2)c1 (stereo not drawn)	3%
O=c1c(N2CCOCC2)nsnc1N1CCOCC1	-13%
Cc1noc(C)c1S(=O)(=O)N1CCC(C(=O)NCCN2CCC(C)CC2)CC1	5%
CC1CC(C(O)c2ccccn2)C(=O)C(C(O)c2ccccn2)C1 (stereo not drawn)	-4%
CSc1ccccc1NC(=O)c1cc(-c2cccs2)on1	32µM*
COc1ccc(N(C(=O)c2ccco2)C(C(=O)NC2CCCC2)c2ccc(N(C)C)cc2)cc1OC (stereo not drawn)	5%
COc1ccc(N2C(=O)CSC23C(=O)Nc2ccccc23)cc1OC (stereo not drawn)	-27%
O=c1c2cccc3c(N4CCOCC4)ccc(c32)c2nc3ccccc3n12	4%
COc1ccc(N2CCN(Cc3cc(=O)oc4cc(C)c(Cl)c(C)c34)CC2)cc1	7%
COc1ccc(C(=O)NC2CCN(C(=O)NC3CCCCC3)CC2)cc1	-7%
CCOC(=O)C1CCN(C(=O)CC(NS(=O)(=O)c2ccc(OC)cc2)C(C)C)CC1 (stereo not drawn)	-2%
Cn1c2ccccc2c2c(C(=O)O)cn(C3CCCC3)c(=O)c21	32µM*
CSc1nc(C)cc(Oc2ccc(=O)n(C)n2)n1	3%
CCOC(=O)c1c(C)n(C)c2ccc(OC)c(NS(=O)(=O)c3ccc(Cl)s3)c12	-2%
CC(C)(C)NC(=O)C(c1ccco1)N(C(=O)c1ccc(CN2CCOCC2)o1)c1ccccc1 (stereo not drawn)	0%
O=c1c2ccccc2sn1-c1cc(S(=O)(=O)N2CCOCC2)ccc1N1CCOCC1	2µM*
CN(C)C(CNC(=O)C1CCCN(C(=O)c2ccc(Cl)cc2)C1)c1ccco1 (stereo not drawn)	9%
Cc1ccc(/C=c2\sc3nc(-c4ccco4)nn3c2=O)o1	13µM*
CC(c1ccccc1)N1CC(C(=O)NC2CCCC2)CC1=O (stereo not drawn)	5%
COc1cc2nc(SCC(N)=O)n(CCC3=CCCCC3)c(=O)c2cc1OC	-6%
N#Cc1ccc(CSCC(=O)O)cc1	-1%
CCCCNC(=O)C1COc2ccccc2O1 (stereo not drawn)	13%

Remaining list, next part.
SMILES	HSD17B inhib
CCOc1ccccc1N(C(=O)c1snc(C(N)=O)c1N)C(C(=O)NC1CCCC1)c1ccco1 (stereo not drawn)	10µM*
COc1ccc(N(CC(=O)NC2CCCC2)C(=O)Cn2nnc(-c3ccc(C)cc3)n2)cc1	0%
O=C(CC(c1ccco1)C1CCCCC1=O)c1ccco1 (stereo not drawn)	-15%
Cc1ccc(-c2nnc3sc(-c4ccncc4)nn23)cc1	-6%
Cc1cc(C(C)(C)C)oc1C(=O)Nc1ccc(CC(=O)O)cc1	1%
COc1cc(S(=O)(=O)n2nnc3ccccc32)c(OC)cc1Cl	1%
COc1ccc(OC)c2[nH]c(=O)c(CCNS(=O)(=O)c3ccccc3)cc12	-28%
COc1cccc(-c2nccc(N(C)Cc3ccco3)n2)c1	?
COc1cccc(OCc2nc3c4cnn(-c5ccccc5)c4ncn3n2)c1	-17%
Oc1c(Cl)cc(C(c2cc(Cl)c(O)c(Cl)c2)C(c2cc(Cl)c(O)c(Cl)c2)c2cc(Cl)c(O)c(Cl)c2)cc1Cl	3.2µM*
COc1ccc2c(c1)CCc1c(C(=O)NCCN3CCOCC3)noc1-2	-24%
CCn1c(SCC(=O)c2ccc3c(c2)OCCO3)nnc1C(C)C	-4%
COc1ccccc1CNc1cc(-c2cccnc2)ncn1	-3%
O=C(Nc1sc2c(c1C(=O)NCc1ccco1)CCCC2)c1ccc2c(c1)OCO2	32µM*
COc1ccc(N2CCN(Cc3nc4c(c(=O)n(C)c(=O)n4C)n3CCc3ccccc3)CC2)cc1	-6%
O=C(NCC1CCCO1)c1ccc(COCC(F)(F)C(F)F)cc1 (stereo not drawn)	-4%
Cc1cc(N)c(NC2=CC(=O)CC(C)(C)C2)cc1C	1%
Cc1ccccc1-c1cc(N(C)C)ncn1	?
O=C(Nc1ccc2c(c1)OCCO2)C1CCCN1S(=O)(=O)c1cccc2cccnc12 (stereo not drawn)	-4%
COC(=O)c1ccc(N2C(=O)CC(SCCN)C2=O)cc1 (stereo not drawn)	3%
CO[C@@H]1COC(=O)CC=C[C@@H](C)[C@@H]2C=C[C@@H](O)[C@@H](COC(=O)C/C=C\[C@H]1C)O2	3%[11.4 µM]
COC(=O)[C@@H]1C[C@@]2(O)[C@H](O)[C@H](O)[C@H](O)C[C@H]2N1Cc1ccc(C)s1	4%
CC(C)[C@@H](OCc1ccccc1)[C@H](C)CO/N=C1/[C@H]2OC2[C@@H](O)[C@H]2[C@H]1CCn1c(=O)n(-c3ccccc3)c(=O)n12 (stereo partly drawn)	1%[11.4 µM]
OC(COCc1ccc(Cl)cc1)CN1CCN(CC(O)COCc2ccc(Cl)cc2)CC1 (stereo not drawn)	8%
Cn1cccc1C(=O)N1CCC[C@@]2(CCN(c3ccncc3)C2)C1	5%
COc1ccc(-c2nc(CSCC(=O)N3CCN(C4CCCCC4)CC3)c(C)o2)cc1OC	?
COC(=O)c1c(C)oc2ccc(OC(=O)c3cccs3)cc12	10%
CCN1C(=S)SC(=O)C1=C1C=C(C)N(Cc2ccco2)C(C)=C1	-17%
CCc1ccccc1N(CC(=O)OC)S(C)(=O)=O	5%
CC(=O)NC1(c2ccccc2)CCN(C(=O)N2CCOCC2)CC1	3%

Brought forward from above: three compounds, followed by the next part.
SMILES	HSD17B inhib
CCN1C(=S)SC(=O)C1=C1C=C(C)N(Cc2ccco2)C(C)=C1	-17%
CCc1ccccc1N(CC(=O)OC)S(C)(=O)=O	5%
CC(=O)NC1(c2ccccc2)CCN(C(=O)N2CCOCC2)CC1	3%
O=C(c1cc2ccccc2o1)n1nnc2ccccc21	-10%
Cc1cc2c(c(=O)o1)C1(C(=O)N(C)c3ccccc31)C(C#N)=C(N)O2 (stereo not drawn)	0%
Cc1ccccc1-c1nc(CS(=O)(=O)CC(=O)NCCN2CCOCC2)c(C)o1	-1%
COC(=O)C/C=C\[C@@H](C)[C@@H](/C=N\O[C@@H](C)c1cc(-c2c(C)cc(C)cc2C)no1)OC	-3%[11.4 µM]
Cc1nc2cnc(Oc3cccc(Cl)c3)nc2n(CCC#N)c1=O	6%
Cc1ccc(SCc2[nH]nc3c2C(c2cccnc2)C(C#N)=C(N)O3)cc1 (stereo not drawn)	-18%
Cc1sc2nc(SCc3nnc(-c4cccs4)o3)n(C3CCCC3)c(=O)c2c1C	3%
CC(C)OC(=O)CSc1nnc(-c2ccc(O)cc2)n1Cc1ccccc1	-24%
O=C(Cc1ccc(S(=O)(=O)N2CCOCC2)s1)Nc1ccc2c(c1)CCC2	-14%
CC(C)Cc1cc(C(=O)O)n[nH]1	1%
C=CCOc1ccc(C2N3CC4(C)CN2CC(CCC)(C3)C4=O)cc1 (stereo not drawn)	-5%
CC(=O)OCC(=O)[C@@]1(O)CCC2C3CC[C@H]4CC(O)CC[C@@]4(C)C3C(=O)C[C@]21C (stereo partly drawn)	-7%
O=C1CC(c2ccco2)Cc2nc(NCC3CCCO3)ncc21 (stereo not drawn)	-4%
O=C1CCC(c2ccc(-n3ccnc3)cc2)=NN1	-9%
CC(=O)OC[C@@H]1O[C@@H](O/N=C2/C[C@@H](O)[C@@H](O)[C@@H]3[C@@H]4C(=O)N(C(C)(C)C)C(=O)[C@H]4CC[C@@H]23)[C@H](OC(C)=O)[C@H](OC(C)=O)[C@@H]1OC(C)=O	4%[11.4 µM]

Seven entries picked at random from the list so far, as already listed:
SMILES	HSD17B inhib
CC(=O)OCC(=O)[C@@]1(O)CCC2C3CC[C@H]4CC(O)CC[C@@]4(C)C3C(=O)C[C@]21C (stereo partly drawn)	-7%
Cc1nc2cnc(Oc3cccc(Cl)c3)nc2n(CCC#N)c1=O	6%
C=CCOc1ccc(C2N3CC4(C)CN2CC(CCC)(C3)C4=O)cc1 (stereo not drawn)	-5%
Cc1cc2c(c(=O)o1)C1(C(=O)N(C)c3ccccc31)C(C#N)=C(N)O2 (stereo not drawn)	0%
CC(C)Cc1cc(C(=O)O)n[nH]1	1%
O=C(c1cc2ccccc2o1)n1nnc2ccccc21	-10%
COC(=O)C/C=C\[C@@H](C)[C@@H](/C=N\O[C@@H](C)c1cc(-c2c(C)cc(C)cc2C)no1)OC	-3%[11.4 µM]

Later entries:
SMILES	HSD17B inhib
Cc1cccc(-c2nc(C#N)c(N3CCCCCC3)o2)c1	25µM*
CC(C)(C)C1CCc2onc(C(=O)Nc3cnn(Cc4ccc(F)cc4)c3)c2C1 (stereo not drawn)	25µM*
CC(=O)Nc1ccc(NS(=O)(=O)c2cn(C)c(=O)n(C)c2=O)cc1	7%
O=C(Nc1ncnc2c1CCC2)C12CC3CC(CC(C3)C1)C2	9%
NC(=O)CSc1nnc(C2CC2)n1Cc1ccccc1	6%
COc1ccc(C2C(CC(=O)O)=C(O)C(=O)N2c2ccccc2)cc1 (stereo not drawn)	?
CCOc1ccc(-c2cc(CCCC(=O)NCc3ccco3)no2)cc1	-7%
COc1ccc(C(c2nnnn2C2CCCC2)N2CCC(C)CC2)cc1 (stereo not drawn)	-2%
Cc1cc(C)cc(OCC(=O)N2CCCCCC2)c1	-6%
COc1ccc(-c2cc(C(=O)NCC(C)C)no2)cc1	3%
CC(C)C(c1nnnn1CC1CCCO1)N1CCN(Cc2ccc3c(c2)OCO3)CC1 (stereo not drawn)	7%
COC(=O)CSc1nnc(C2COc3ccccc3O2)n1-c1ccccc1 (stereo not drawn)	0%
CCOC(=O)c1c(C)nc2c(C#N)cnn2c1C	32µM*

Three of the compounds above, comma-delimited:
smiles,HSD17B inhib
COc1ccc(-c2cc(C(=O)NCC(C)C)no2)cc1,3%
CCOc1ccc(-c2cc(CCCC(=O)NCc3ccco3)no2)cc1,-7%
CC(C)(C)C1CCc2onc(C(=O)Nc3cnn(Cc4ccc(F)cc4)c3)c2C1 (stereo not drawn),25µM*
